PINK1 expr mod = A Quantitative High throughput Screen to Identify Chemical Modulators of PINK1 Expression; actives 0.2% (n = 410,000); AID 624263, 2012; Potency, µM (titrated, usually from 76.6 µM), for the others: at the top dose activation (PINK1 increase), most hits filed as activators; PINK1 immunofluorescence, high-content cytometry, 24 h; active = well fitted activation curve with a large enough effect; inconclusive = small, poorly fitted or top-dose-only effect; inactive = flat fitted curve, though single readings scatter; cell line not stated here;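 further: potency means the concentration at half of the fitted maximal effect; % of control where 0% means no effect; nearly all actives have a fitted effect of over 65% in size; a mitochondrial uncoupler was the plate control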
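Cells are seeded, rested 12 hours, then given compound at five concentrations or DMSO for 24 hours. After fixation, blocking and antibody staining, PINK1 amount and mitochondrial localization are scored; CCCP serves as control.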
TRPML1 inh = qHTS for Inhibitors of the Human Mucolipin Transient Receptor Potential 1 (TRPML1); actives 0.02% (n = 390,000); Mucolipin-1 (Homo sapiens), Q9GZU1; TRPML1-inducible cells, Ca2+ dye fluorescence, FDSS; active compounds read low; inhibition of EC80 agonist-evoked calcium signal; activity change, negative = inhibition, % (no concentration beside the values); AID 624415, 2012; in the data active means activity change below about -50%; inconclusive means about -30% to -50%; inactive means above about -30%;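 further: stimulus is agonist 54-4 at its EC80 concentration; on the % scale 0 is the no-effect control and ±100 the full control effect; compound concentration not given in the record; the text of the record puts the active cut at -80%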
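Calcium fluorescence in TRPML1-DL cells induced overnight with Tet: a 110 s read after compound pin addition, then a 110 s antagonist read after challenge with 54-4 at 4 uM final (EC80).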
D2 PAM = Beta-Arrestin HTS for Positive Allosteric Modulators of the Human D2 Dopamine Receptor: Potentiators | D(2) dopamine receptor (Homo sapiens), P14416 | DiscoveRx D2 beta-arrestin cells, luminescence, 90 min; 100% = 57 uM dopamine signal | potentiation, % (concentration not given with the values) | actives 0.23% (n = 360,000) | AID 624464, 2012; active = potentiation of 50% or more; inconclusive = 30% to 50%; inactive = 30% or less;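 further: compound concentration not given in the record; tested on top of an EC20 dose of dopamine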
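D2 cells co-treated with compound plus 50 nM dopamine (EC20) for 90 min at 37 deg C to detect potentiation. Beta-arrestin recruitment was read as enzyme-fragment luminescence after 1 h at ambient temperature. Full response was set by 57 uM dopamine.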
TRPML1 ag = qHTS for Agonists of the Human Mucolipin Transient Receptor Potential 1 (TRPML1); AID 624414, 2012; TRPML1-expressing cells, Ca2+ dye fluorescence, FDSS; host cell line not named in the record; reference of the full effect not given here; activation, % (concentration not given with the values); actives 0.12% (n = 410,000); Mucolipin-1 (Homo sapiens), Q9GZU1; in the data active = activation above about 50%; inconclusive = about 30% to 50%; inactive = below about 30%; further: 0% is about no effect; the text of the record puts the active cut at 80%
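Agonist activity was taken from a 110 s kinetic Ca2+ dye read on the FDSS after pinning compounds onto TRPML1-DL cells. The cells were seeded at 1,500/well with Tet inducer, incubated about 16 h, then dye-loaded at room temperature.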
D2 ag = Beta-Arrestin HTS for Positive Allosteric Modulators of the Human D2 Dopamine Receptor: Agonists | actives 0.084% (n = 360,000) | D(2) dopamine receptor (Homo sapiens), P14416 | AID 624465, 2012 | activation, % (no concentration beside the values) | DiscoveRx PathHunter D2 beta-arrestin, luminescence, 90 min; 100% = 57 uM dopamine signal; in the data active = activation above about 40%; inconclusive = about 15% to 40%; inactive = below about 15%; further: compound concentration not given in the record; the text of the record calls up to 30% inactive
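DiscoveRx PathHunter D2 beta-arrestin cells (2,100/well) attached overnight, then compound-stimulated 90 min at 37 C in HBSS/10 mM HEPES/0.1% Tween-20 buffer; beta-galactosidase complementation read by luminescence after 1 h at ambient temperature. Dopamine 57 uM final (EC100) as control.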
Six1-Eya2 inh = qHTS Assay for Inhibitors of the Six1/Eya2 Interaction; activity change, % (no concentration beside the values); actives 0.56% (n = 360,000); Homeobox protein SIX1 (Homo sapiens) + Protein phosphatase EYA2 (Homo sapiens), …; AlphaScreen GST-Six1/His-Eya2 binding, biochemical; active compounds read low; control for the full effect not named in the record; in the data active = activity change below about -65%; inconclusive = about -30% to -65%; inactive = above about -30%; further: on the % scale 0 is the no-effect control and ±100 the full control effect
Target sequence (O00167 whole entry, looked up): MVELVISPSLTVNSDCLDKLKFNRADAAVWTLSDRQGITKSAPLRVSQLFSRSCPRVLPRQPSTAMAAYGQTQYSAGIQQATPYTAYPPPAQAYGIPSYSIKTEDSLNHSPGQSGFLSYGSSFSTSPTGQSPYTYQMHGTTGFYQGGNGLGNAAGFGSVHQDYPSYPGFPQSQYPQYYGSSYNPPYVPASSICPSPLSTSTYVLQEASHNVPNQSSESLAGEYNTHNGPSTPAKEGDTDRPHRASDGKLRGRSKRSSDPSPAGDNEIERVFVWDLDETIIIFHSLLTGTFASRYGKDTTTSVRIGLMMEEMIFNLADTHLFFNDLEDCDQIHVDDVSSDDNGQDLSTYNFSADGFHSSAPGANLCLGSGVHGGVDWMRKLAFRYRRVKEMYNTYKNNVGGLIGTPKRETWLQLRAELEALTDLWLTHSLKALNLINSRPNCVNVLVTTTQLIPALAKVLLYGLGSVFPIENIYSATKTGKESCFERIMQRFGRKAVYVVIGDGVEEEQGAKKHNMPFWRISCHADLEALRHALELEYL
Target sequence (Q15475 whole entry, looked up): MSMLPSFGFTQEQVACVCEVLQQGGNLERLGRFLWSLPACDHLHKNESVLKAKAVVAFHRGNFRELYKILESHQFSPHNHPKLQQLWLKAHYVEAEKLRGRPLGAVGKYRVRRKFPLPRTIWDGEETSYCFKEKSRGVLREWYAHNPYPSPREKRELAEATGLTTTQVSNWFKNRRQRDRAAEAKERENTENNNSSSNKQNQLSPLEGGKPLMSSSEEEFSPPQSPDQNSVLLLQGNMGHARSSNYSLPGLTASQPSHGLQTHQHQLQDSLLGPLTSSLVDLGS
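AlphaScreen with GST-Six1 and His-Eya2 (5X mix: 250 nM and 500 nM), glutathione donor and nickel acceptor beads; buffer 50 mM Tris pH 8.0, 300 mM NaCl, 1 mM TCEP; 1 h at 37 C in the dark.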
The depositor's hits bear a star; ? = inconclusive; nt = not tested or not shown; & = joins results of further samples; [ ] = dose if it differs, or a comment.

Structure	PINK1 expr mod	TRPML1 inh	D2 PAM	TRPML1 ag	D2 ag	Six1-Eya2 inh
COc1ccc2c(CC(=O)OCC(=O)Nc3cccc(S(N)(=O)=O)c3)coc2c1	-1.6%	8	0	0.5	2.1	-1
Nc1ncnc(Nc2cccc(C(F)(F)F)c2)n1	-5.6%[38.3 µM]	-7	2	0.5	1.2	3
O=C(c1noc2c1CCCCC2)N1CCN(c2ccc(Cl)cc2)CC1	15%	3	nt	1.1	nt	nt
O=C(c1ccccc1)C1CCN(C(=O)C2CCC(=O)N(Cc3cccc(F)c3)C2)CC1 (configuration not stated)	0.6%	44	-13	-1.2	2.7	-9
COc1ccc(C(=O)Cn2c(=N)n(C)c3ccccc32)cc1	-0.9%	-11	-10	-0.2	-7.4	9
CC(C)(C)C1CCC(=NNc2ncc(C(F)(F)F)cc2Cl)CC1 (configuration not stated)	5.1%[38.3 µM]	-13	-16	-0.1	0.3	-3
CC(C)(C)OC(=O)C[C@H]1C/C=C\C[C@@H](CC(=O)N[C@@H](CO)Cc2ccccc2)C(=O)N2CCC[C@@H]2COC1=O	-0.2%	14	-9	-0.8	-1.1	8
CCCN(CC(=O)Nc1ccccc1OC)C(=O)CSc1nc(C)cc(C)n1	-3.4%	-5	-13	0.0	-2.8	9
COc1ccc(Nc2cc(NCCCO)c([N+](=O)[O-])c3nonc23)cc1	-1.6%	-9	-7	0.9	-5.9	-25
Cc1ccc(OCCSc2nc(-c3cccs3)nc3cc(=O)[nH]n23)cc1Cl	2.7%	37	nt	-1.0	nt	nt
COc1cccc(C(=O)Nc2ccccc2C(=O)OCc2cc(=O)n3nc(C4CC4)sc3n2)c1	0.9%	-13	nt	-0.5	nt	nt
COCOc1cccc(CN2CCC2(C)C(=O)Nc2ccc3c(c2)OCO3)c1 (configuration not stated)	0.9%	nt	-12	-1.1	-2.8	-8
Cc1snc(S(=O)(=O)Cc2ccccc2Cl)c1C#N	-3.8%	6	7	-0.9	-1.0	-1
COc1cccc(OC)c1C(=O)NC(=S)N1CCOCC1	0.1%	-12	-6	1.7	-0.7	8
Cc1cc(NC(=O)C2CCN(S(=O)(=O)c3c(C)noc3C)CC2)ccc1Br	8.5%&7.8%	16&34	-14	1.3&-1.1	2.3	5
COc1ccc(/C=N\Nc2ccc([N+](=O)[O-])cc2[N+](=O)[O-])c(C(=O)O)c1OC	10%	11	20	2.8	?	-1
COC(=O)c1cc(S(=O)(=O)NCc2ccccc2Cl)c[nH]1	-1.0%	14	-2	-1.1	-4.7	0
COc1ccc(NC(=O)c2c(C)cc(=O)oc2C)c(OC)c1	-0.3%	-5	-15	-0.2	-0.9	-1
CC(C)C(NC(=O)c1cccs1)c1nnc(SCC(=O)Nc2nccs2)n1C (configuration not stated)	-2.3%[38.3 µM]	-5	6	-0.1	-0.2	2
Cc1c(C(=O)N2CCCC2)c(S(=O)(=O)N2CCN(c3ccccc3F)CC2)c(C)n1C	0.0%	13	-2	0.5	4.8	0
COc1cc(C(C(=O)NC2CCCC2)N(C(=O)c2snc(C(N)=O)c2N)C2CCCC2)cc(OC)c1OC (configuration not stated)	0.1%	3	5	1.7	5.8	7
O=C(C1CCN(S(=O)(=O)c2cccc3nsnc23)CC1)N1CCc2ccccc21	-0.8%	12	-4	1.1	-0.9	-6
O=C(O)C1CC=CCC1C(=O)Nc1ccc(N2CCN(Cc3ccccc3)CC2)cc1 (configuration not stated)	4.1%	34	-14	0.0	0.6	14
CC(=O)N1CCN(C(=O)COC(=O)/C=C/c2ccccc2[N+](=O)[O-])CC1	-0.3%	28	-23	-0.5	2.7	-1
CC(C(=O)Nc1ccc(F)c(F)c1F)N(C)Cc1cccs1 (configuration not stated)	2.0%	24	-13	3.6	0.2	15
O=C(CNc1ccccc1)Nc1ccc(F)cc1	18%[38.3 µM]	-3	-12	-0.1	-2.2	0
c1ccc2c(c1)NC(CN1CCOCC1)CO2 (configuration not stated)	1.9%	-15	-5	-0.1	-2.1	-1
CC(C)CCN1CC(C(=O)NCc2ccc(F)cc2)CC1=O (configuration not stated)	5.5%[38.3 µM]	-3	2	0.7	-1.0	2
COCCOCCOCCC(=O)NC1CC2CCC1(C)C2(C)C (configuration not stated)	-1.2%[38.3 µM]	7	3	-0.5	1.0	3
Cc1ccc(-n2ncc(C(=O)Nc3ccc4c(c3)OCCO4)c2C2CCN(C(=O)OC(C)(C)C)CC2)cc1C	-1.3%	2	nt	0.1	nt	nt
CC(C)(C)C(=O)/C(=C/c1ccncc1)n1cncn1	-2.9%	8	-7	3.9	-4.9	0
CCc1ccccc1NC(=O)Cn1nnc(-c2cccs2)n1	0.1%[38.3 µM]	-11	-9	-0.4	-1.2	6
CC(C)n1cc(C(=O)c2cc(Br)ccc2O)cc(C#N)c1=O	0.9%	10	?	-0.1	2.1	0
COc1ccc(C(=O)NNC(=O)C(=O)Nc2ccc(C)c(Cl)c2)cc1	-2.2%	11	-14	0.0	0.1	-3
c1ccc(COc2ncnc3c2ncn3CCCNC2CCN(Cc3ccccc3)CC2)cc1	-1.1%	7	-11	1.0	-4.8	-15
COc1cc(NC(=O)C(C)Oc2ccccc2)c(OC)cc1NC(=O)c1ccccc1 (configuration not stated)	3.3%	-4	11	1.5	3.3	-28
Cc1ccc(CNC(=O)C2CCN(C(=O)Nc3ccc(C)cc3)CC2)cc1	0.0%	2	0	2.2	-1.1	1
Cc1ccc(CNC(=O)c2ccc3c(c2)N(Cc2cccc(Cl)c2)C(=O)CS3)cc1	0.5%	4	nt	1.9	nt	nt
C=CCc1cc(OC)ccc1OCCN1CC(C)OC(C)C1 (configuration not stated)	6.7%	24	-3	0.1	0.4	-5
O=C(Cc1ccc(F)cc1)OCC(=O)c1cc2ccccc2o1	-0.1%	29	-55	1.2	-7.3	15
Cc1nn(CCCC(=O)Nc2cccc(C(F)(F)F)c2)c(=O)c2nn(-c3ccccc3)c(C)c12	-0.6%	-9	nt	0.3	nt	nt
CCC(=O)N1N=C(c2ccccc2)CC1c1ccccc1 (configuration not stated)	-1.6%	21	-4	1.1	-3.2	-2
N#Cc1cc2[nH]c3ccccc3c2[n+](-c2ccc([N+](=O)[O-])cc2)c1N	-0.4%	-2	17	-0.4	-5.7	-1
O=C(NCCCn1ccnc1)c1cc2c(ccc3ccccc32)o1	0.8%	-5	1	0.0	-1.2	1
C=Cc1ccc(Cn2c(C(=O)OC)cc3sc(C)cc32)cc1	1.3%	1	nt	1.9	nt	nt
COc1ccccc1N1CCN(Cc2ccc(O)c3ncccc23)CC1	-1.4%[38.3 µM]	-3	-28	-0.4	-9.9	-91*
O=C(CCNS(=O)(=O)c1ccc(Cl)cc1)N1CCN(Cc2ccccc2)CC1	-0.7%	37	-16	-0.2	-1.2	-10
Cc1ccc2c(c1)N=C(c1ccc(F)cc1)CO2	16%	-17	-33	0.4	-2.8	8
Cc1cccc(NS(=O)(=O)Cc2ccccc2)n1	1.1%	0	-2	-0.4	-1.0	-1
O=C(Nc1nc(-c2ccccc2)cs1)c1ccc2c(c1)S(=O)(=O)c1ccccc1C2=O	-3.1%	-7	-13	-0.5	1.8	-20

Next part, starting with the last two of the part before.
Structure	PINK1 expr mod	TRPML1 inh	D2 PAM	TRPML1 ag	D2 ag	Six1-Eya2 inh
Cc1cccc(NS(=O)(=O)Cc2ccccc2)n1	1.1%	0	-2	-0.4	-1.0	-1
O=C(Nc1nc(-c2ccccc2)cs1)c1ccc2c(c1)S(=O)(=O)c1ccccc1C2=O	-3.1%	-7	-13	-0.5	1.8	-20
O=C(NCc1nc2ccccc2[nH]1)c1cccc(S(=O)(=O)N2CCCC2)c1	-0.1%	-8	-27	0.8	-4.1	4
CCn1c(SCC(=O)Nc2ccc(C)cc2)nnc1-c1ccccn1	4.7%	-4	-6	1.1	-2.7	-7
COC(=O)c1c(C)[nH]c(C(=O)OCC(=O)NCC(C)C)c1C	-1.9%	8	-3	-1.3	-2.5	0
O=C(c1ccco1)N1CCN(c2nnc(-c3ccccc3)c3ccccc23)CC1	0.2%[38.3 µM]	4	-7	0.3	-2.4	-9
CCOC(=O)CC/C(=N\NC(N)=O)c1ccc(OC)c(Cl)c1	-1.5%	20	-2	-0.3	3.1	5
CCOC(=O)c1ccc(Nc2c(-c3ccc(O)c(OC)c3)nc3nc[nH]n23)cc1	-1.4%	-14	nt	-0.3	nt	nt
Cc1c(C(=O)O)sc2nc(/C=C/c3ccccc3OC(F)F)[nH]c(=O)c12	1.7%	27	-1	1.4	-1.6	8
O=CN1CCN(C(=O)c2ccccc2F)CC1	0.1%	6	-9	0.0	-0.4	1
COC(=O)c1cc(Br)c(=O)n(CCN2CCOCC2)c1	2.7%	19	-11	-0.8	-1.4	-2
CCOC(=O)C1CCN(CC(=O)c2ccc(O)c(C)c2O)CC1	2.5%	-8	-10	0.5	-3.5	2
Cc1ccc2nc(C)c(C(=O)NN=C3CCCCCC3)n2c1	4.9%	-13	1	1.5	0.5	-11
CC(CCc1ccccc1)NC(=O)c1cccs1 (configuration not stated)	-6.8%[38.3 µM]	-28	3	-0.3	-1.0	3
CC1CCN(S(=O)(=O)c2ccc3c(c2)CC(C)N3C(=O)C2CCC2)CC1 (configuration not stated)	-0.1%	30	-15	17	1.7	-4

High-throughput results from PubChem.
